Screening results (PubChem)
GLS inhibitor – inhibitors of human glutaminase (GLS) | 410,000 tested, 0.21% active | Potency, µM (highest dose often 45.5 µM), for inactives: top-dose activity change, negative = inhibition, hits mostly inhibitors | AID 624170 | GLS enzymatic activity, qHTS titration | O94925; also: potency is read from the fitted curve at half-maximal effect
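Glutamate formation by hKGA was monitored fluorometrically using coupled glutamate oxidase, HRP and Amplex Red. Substrate was added as 1 mM L-glutamine solution; incubation was 30 min at RT after an initial read.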
Tb PGK inh – T. brucei PGK inhibition | P07378 | PGK/GAPDH coupled, Kinase-Glo luminescence, 60 min | Potency, µM (titrated, usually from 57.5 µM), for the others: top-dose activity change, negative = inhibition, hits mostly inhibitors | 380,000 tested, 0.043% active; also: potency is read from the fitted curve at half-maximal effect; nearly all actives have a fitted effect of over 60% in size
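Luminescent ATP detection (Kinase-Glo Plus) follows a 60-minute room-temperature incubation, with wells lacking PGK as controls. Buffer: 100 mM TEA (pH 7.6), 5 mM MgCl2, 0.01% Tween-20. Coupling enzyme GAPDH (100 nM final) supplies unstable 1,3-BPG in-well.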
IDH1 R132H inh – human IDH1 R132H inhibition; O75874; Potency, µM (series often up to 76.6 µM), for the others: at the top dose activity change, negative = inhibition, usual class: inhibitors; 390,000 tested, 0.093% active; IDH1-R132H enzyme, NADPH consumption, diaphorase/resazurin fluorescence; also: potency is read from the fitted curve at half-maximal effect; nearly all actives have a fitted effect of over 65% in size
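IDH1-R132H (0.5 ug/mL dispensed) in pH 7.5 Tris buffer was preincubated 30 min with compound, then given a substrate mix of 0.016 mM NADPH and 2 mM alpha-KG for 80 min at room temperature; remaining NADPH was read by diaphorase/resazurin fluorescence.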
TrxR1 substrate – substrates of rat thioredoxin reductase 1; AID 588456; 390,000 tested, 0.01% active; Potency, µM (series often up to 114 µM), for the others: top-dose activity change, negative = substrate turnover; O89049; purified TrxR1 substrate turnover, NADPH consumption readout; also: potency is read from the fitted curve at half-maximal effect; nearly all actives have a fitted effect of over 50% in size
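Rat TrxR1, dispensed at 90 nM, was prereduced with 400 uM NADPH (final) for 5 min at ~22 deg C, then incubated with compound 15 min before 400 uM selenite. A first-read NADPH fluorescence drop versus no-compound background flagged substrates.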
PI4K2A block – PI4K2A (human) kinase inhibition. Q9BTU6. purified PI4K2A, ADP-Glo luminescence, 1 h; stronger effect = lower value. activity change, negative = inhibition, % at 76.9 µM. 420,000 tested, 0.13% active. AID 1346378; in the data active = activity change below about -50%; inconclusive = mostly about -30% to -49%;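 also: -100% = wells without enzyme as full effect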
Target sequence (Q9BTU6 whole entry, looked up): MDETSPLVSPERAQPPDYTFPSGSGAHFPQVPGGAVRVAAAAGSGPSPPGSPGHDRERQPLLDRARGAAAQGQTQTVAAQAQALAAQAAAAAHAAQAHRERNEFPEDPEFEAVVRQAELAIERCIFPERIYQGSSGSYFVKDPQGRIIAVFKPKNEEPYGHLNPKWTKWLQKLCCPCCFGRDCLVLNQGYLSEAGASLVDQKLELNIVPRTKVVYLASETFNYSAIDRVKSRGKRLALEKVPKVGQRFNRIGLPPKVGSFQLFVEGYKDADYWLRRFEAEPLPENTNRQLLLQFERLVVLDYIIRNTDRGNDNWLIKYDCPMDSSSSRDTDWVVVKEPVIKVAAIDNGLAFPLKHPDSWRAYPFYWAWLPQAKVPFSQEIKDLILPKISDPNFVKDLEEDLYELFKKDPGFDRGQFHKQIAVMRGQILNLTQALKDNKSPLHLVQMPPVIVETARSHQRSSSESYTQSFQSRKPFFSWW
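ADP-Glo luminescence measured ADP generated by PI4K2A enzyme (4 ug/mL before mixing) with 1.2 mM PI substrate (pre-mix) and 300 microM ATP (pre-mix). Tris pH7.5 buffer with MgCl2, Triton X-100; 1 h reaction at ambient temperature.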
TrxR1 inh – blocks rat thioredoxin reductase 1. O89049. recombinant rTrxR1, NADPH fluorescence consumption, selenite substrate. Potency, µM (highest dose often 114 µM), inactives show top-dose activity change, negative = inhibition, usual class: inhibitors. 390,000 tested, 1% active; also: potency is read from the fitted curve at half-maximal effect; nearly all actives have a fitted effect of over 65% in size
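Rat TrxR1 (90 nM in the dispensed reagent) was pre-reduced with 400 uM NADPH for 5 min at room temperature, then incubated with compound for 15 min. After 400 uM selenite was added, NADPH fluorescence (Ex 340/Em 450 nm) was followed for 8 min.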
USP1-UAF1 inh – inhibitors of human USP1/UAF1 deubiquitinase; recombinant USP1/UAF1, Ub-Rhodamine cleavage fluorescence; 390,000 tested, 0.23% active; O94782; Potency, µM (series often up to 57.1 µM), without a hit: top-dose activity change, negative = inhibition, usual class: inhibitors; also: potency is read from the fitted curve at half-maximal effect; nearly all actives have a fitted effect of over 60% in size; inactives centre near -12
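USP1/UAF1 complex at 1 nM was preincubated with compound for 15 min at room temperature, then Ub-Rho substrate (150nM final) was added. Fluorescence (480/540 nm) was read kinetically, 6 reads every 60 seconds.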
Pin1 inh – blocks the human prolyl isomerase Pin1; Pin1 FP peptide displacement, HiFluor488, 10 min; Potency, µM (highest dose often 115 µM), inactives show top-dose activity, negative = inhibition, usual class: inhibitors; 390,000 tested, 0.009% active; AID 504891; active = well fitted inhibition curve with a large enough effect in the polarisation, with a control signal flat, not every such curve was filed as active; inconclusive = small, poorly fitted or top-dose-only effect, or effect the other way, or a change in a side signal; inactive = no such curve, though single readings can be large or run the other way; the % refers to the polarisation; also: potency is read from the fitted curve at half-maximal effect
Target sequence (Q13526 whole entry, looked up): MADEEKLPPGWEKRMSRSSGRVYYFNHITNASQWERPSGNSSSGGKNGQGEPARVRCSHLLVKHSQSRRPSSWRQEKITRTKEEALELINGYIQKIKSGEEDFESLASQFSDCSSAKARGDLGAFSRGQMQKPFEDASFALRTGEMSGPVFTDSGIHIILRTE
Active calls of the source: *; i = inactive; u = inconclusive; x = not tested or not shown; [ ] = another dose, or the depositor's remark. Unless noted, calls follow the shape of the dose curve; as a rule, active = well fitted curve in the direction sought with a large enough effect; inconclusive = small, poorly fitted or top-dose-only effect, or another doubt; inactive = no such curve, though single readings can be large; an effect the other way counts as inactive or inconclusive. Unless noted, % is scaled to controls: 0 for no effect and ±100 for the full control effect.

Values run as follows: GLS inhibitor	Tb PGK inh	IDH1 R132H inh	TrxR1 substrate	PI4K2A block	TrxR1 inh	USP1-UAF1 inh	Pin1 inh
1. CCOc1ccc(C(=O)Nc2ccc(C(=O)OCc3cc(=O)n4nc(CC)sc4n3)cc2)cc1
  -6.6%	7.7%	-1.1%	1.9%[57.1 µM]	0.1	22.1%[57.1 µM]	-15.6%	27.8%
2. c1ccc2c(c1)Cn1c-2nc2ccccc21
  8.2%	u	2.9%	27.8%	-52.6*	-0.6%	2.5%	-1.5%
3. CS(=O)(=O)N(CC(=O)Nc1ccccc1)c1cccc(Cl)c1Cl
  -25.0%	-12.9%	-8.5%	-12.2%	2.3	-6.4%	-12.8%	0.8%
4. Cc1c(N=Cc2ccc[nH]2)c(=O)n(-c2ccccc2)n1C
  17.4%	7.4%	3.3%	-5.7%	-7.5	-19.3%	5.5%	5.0%
5. Cc1cccc(C(=O)Oc2ccc(/C=N/NC(=O)Cc3ccc([N+](=O)[O-])cc3)cc2)c1
  0.3%	1.5%	-1.9%	-0.5%[57.1 µM]	5.1	-10.2%[57.1 µM]	3.5%	1.0%
6. CC(C)(C)S(=O)(=O)N1C[C@@H]2CC/C=C\C/C(c3ccccc3)=C\2[C@H]1CCO
  -6.2%	-6.3%	-4.9%	-8.0%	-0.9	-4.3%	-22.4%	1.0%
7. Fc1ccc(N/N=C/C=C/c2ccccc2)c(F)c1
  18.6%	0.5%	4.2%	-7.0%	4.3	-4.1%	5.3%	-0.3%
8. COc1cccc(CC2(CO)CCCN(Cc3cn(C)c4ccccc34)C2)c1 (configuration not stated)
  -6.0%	x	5.6%	-1.5%	-0.5	26.5%	-1.9%	0.0%
9. Cc1ccc(OCCOCCN2CCN(C)CC2)c([N+](=O)[O-])c1
  10.3%	-7.4%	3.3%	-0.7%	-3.8	0.9%	-4.8%	-16.8%
10. O=C(Nc1nnc(COc2ccc(Br)cc2)s1)c1ccco1
  21.1%	-1.4%	-10.2%	-3.9%	-2.6	6.1%[57.1 µM]	7.6%	37.5%[activator]
11. COc1ccc(-c2cc(=O)oc3cc(O)ccc23)cc1
  9.8%	i	-4.6%	7.4%	0.4	20.7%	-25.2%	6.8%
12. COCCn1c(SCC(=O)OC(C)C)nnc1-c1ccccc1
  -1.9%	-0.1%	-2.4%	2.2%	-6.4	30.8%	-16.7%	10.4%
13. CCOC(=O)c1c(/N=C/c2cccc(C)c2O)sc2c1CCN(C)C2
  -0.6%	i	9.4%	-14.8%	4.3	-18.2%	-16.3%	u
14. CCOC(=O)c1sc(=S)n(C)c1NC(=O)c1ccccc1C
  -1.1%	-7.7%	2.4%	-9.3%	-0.2	-19.2%	-0.1%	-15.6%
15. O=C(Nc1cccnc1)c1cccc(S(=O)(=O)N2CCCCC2)c1
  7.4%	i	1.4%	8.3%[57.1 µM]	4.1	11.4%[57.1 µM]	-19.1%	-1.7%
16. CCOc1ccc(CNC(=O)c2cnc3sc(N4CCOCC4)nn3c2=O)cc1OC
  -1.8%	i	-7.9%	1.2%[57.1 µM]	-3.0	-11.8%[57.1 µM]	-17.9%	-3.2%
17. Cc1ccc(OCCn2ccnc2)c([N+](=O)[O-])c1
  -0.9%	-3.2%	0.0%	2.0%	5.0	11.6%	-21.6%	-3.2%
18. CCOC(=O)CN1C(=O)C(=O)c2cccc(C)c21
  -2.7%	-4.9%	-16.5%	0.5%	4.9	19.0%	-24.0%	-1.2%
19. Nc1nc(SCC(=O)c2ccc(F)cc2)n[nH]1
  8.8%	-6.3%	4.6%	-0.6%[57.1 µM]	-0.5	-2.5%[57.1 µM]	-19.8%	-14.4%
20. Cc1ccc(S(=O)(=O)C(C#N)c2nc3ccccc3nc2N2CC(C)OC(C)C2)cc1C (configuration not stated)
  47.2%[activator]	-2.9%	-27.3%	-3.8%	-22.4	-20.4%	-16.4%	-4.0%
21. Cc1nn2c(=O)cc(COC(=O)c3ccc(NC(=O)C(C)(C)C)cc3)nc2s1
  -2.0%	-4.5%	2.9%	15.5%	-7.1	34.0%[activator]	-15.9%	8.9%
22. Cc1cc(C)n(-c2nc(-c3ccccc3)cs2)n1
  -2.6%	-13.5%	7.3%	-0.1%	1.8	5.5%	-22.2%	3.4%
23. CC1(C)CCCC(C)(C)N1CC(O)COCCOc1ccc(Br)cc1 (configuration not stated)
  10.5%	i	4.2%	4.3%[57.1 µM]	1.0	4.2%[57.1 µM]	-10.3%	-3.9%
24. COc1ccc(OC)c(NC(=O)COC(=O)c2c3c(nc4ccccc24)CCCC3)c1
  4.8%	i	2.8%	-8.0%	-3.7	13.5%	-12.5%	15.9%
25. Cc1ccc(NS(=O)(=O)c2ccc(N3CCN(c4ccc(O)cc4)CC3)c([N+](=O)[O-])c2)c(C)c1
  u	-1.5%	-3.3%	-0.2%[57.1 µM]	-1.4	-2.5%[57.1 µM]	2.4%	8.0%
26. Cc1c(N=Cc2nc3ccccc3n2C)c(=O)n(-c2ccccc2)n1C
  10.2%	-19.1%	-2.9%	-4.9%	-17.1	12.2%	-2.2%	u
27. CCc1ccc(NSc2ccccc2[N+](=O)[O-])cc1
  9.7%	7.2%[11.5 µM]	1.6%	2.9%	-0.9	9.4%	-6.2%	-3.2%
28. Cc1ccc([N+](=O)[O-])c(OCCN2CCCCCC2)c1
  41.3%[activator]	5.1%	-10.0%	0.9%	6.9	5.8%	-18.7%	1.2%
29. COc1ccc(-c2cc(-c3n[nH]c(=S)n3-c3ccccc3OC)[nH]n2)cc1
  -21.2%	i	2.3%	0.1%	-4.1	-12.2%	-13.7%	3.1%
30. CCOC(=O)c1sc(=S)n(-c2ccc(OC)cc2)c1C
  14.3%	3.3%	4.6%	0.4%[57.1 µM]	-17.2	3.4%[57.1 µM]	-8.4%	-2.9%
31. COc1ccc(CC2(CO)CCN(S(=O)(=O)N(C)C)CC2)cc1
  7.7%	-6.7%	-1.0%	2.3%[57.1 µM]	-1.0	13.7%[57.1 µM]	3.3%	-13.2%
32. CC1(CCc2ccc3c(c2)OCO3)NC(=O)c2ccccc2N1 (configuration not stated)
  u	10.1%	3.7%	64.5%[activator]	-8.9	-0.1%	-20.0%	u
33. CCc1ccc(CSc2nccn2-c2ccccc2)cc1
  5.5%	-1.9%	3.8%	6.4%[57.1 µM]	5.6	3.8%	-12.2%	-12.8%
34. CCOC(=O)c1sc(NC(=O)CSc2nc(C)cc(C)n2)c(C#N)c1C
  0.5%	-9.6%	0.0%	1.4%	2.4	8.4%	-10.0%	44.7%[activator]
35. COc1ccc(Cc2nnc(NC(=O)c3cccs3)s2)cc1
  -1.0%	-5.0%	6.7%	0.6%	4.3	15.1%	-20.2%	6.7%
36. Nc1ccccc1Oc1ncc(C(F)(F)F)cc1Cl
  -11.9%	x	20.8%	-9.8%	-0.7	6.7%	-16.9%	10.8%
37. CCOC(=O)c1ccc(N2C(=O)C3CCCN3C2=S)cc1 (configuration not stated)
  -2.1%	-7.7%	-8.5%	-0.3%	-4.3	-5.5%	-24.2%	1.9%
38. COc1cccc(CN2CCCC(C(=O)N3CCCCC3)C2)c1 (configuration not stated)
  -1.4%	2.4%	3.0%	-0.2%	4.0	12.6%	-7.3%	-1.2%
39. N#CCOC(=O)c1c2c(nc3ccccc13)CCC2
  0.0%	-9.1%	-4.9%	9.6%	-4.4	2.2%[57.1 µM]	-2.5%	-0.1%
40. O=C(/C=C/c1ccc([N+](=O)[O-])cc1)Oc1ccc(/C=N/NC(=O)c2ccncc2)cc1
  -21.8%	6.3%	-12.0%	-4.5%	20.0	35.5µM*	-18.4%	u
41. COc1ccc(C=NN=C2c3ccccc3-c3ccccc32)cc1O
  10.4%	-2.2%	-0.2%	7.6%[11.4 µM]	-0.9	2.7%[11.4 µM]	-18.2%	-10.4%
42. COC(=O)c1ccc(CSc2nc3ccc(Cl)cc3[nH]2)o1
  -1.4%	-11.5%	8.0%	2.5%[57.1 µM]	-6.6	7.0%[57.1 µM]	-8.7%	2.6%

Grouped by structure, the compounds so far containing two or more sulfur atoms (4)
Values run as follows: GLS inhibitor	Tb PGK inh	IDH1 R132H inh	TrxR1 substrate	PI4K2A block	TrxR1 inh	USP1-UAF1 inh	Pin1 inh
14. CCOC(=O)c1sc(=S)n(C)c1NC(=O)c1ccccc1C
  -1.1%	-7.7%	2.4%	-9.3%	-0.2	-19.2%	-0.1%	-15.6%
30. CCOC(=O)c1sc(=S)n(-c2ccc(OC)cc2)c1C
  14.3%	3.3%	4.6%	0.4%[57.1 µM]	-17.2	3.4%[57.1 µM]	-8.4%	-2.9%
34. CCOC(=O)c1sc(NC(=O)CSc2nc(C)cc(C)n2)c(C#N)c1C
  0.5%	-9.6%	0.0%	1.4%	2.4	8.4%	-10.0%	44.7%[activator]
35. COc1ccc(Cc2nnc(NC(=O)c3cccs3)s2)cc1
  -1.0%	-5.0%	6.7%	0.6%	4.3	15.1%	-20.2%	6.7%

2 compounds picked at random from the list so far:
Values run as follows: GLS inhibitor	Tb PGK inh	IDH1 R132H inh	TrxR1 substrate	PI4K2A block	TrxR1 inh	USP1-UAF1 inh	Pin1 inh
37. CCOC(=O)c1ccc(N2C(=O)C3CCCN3C2=S)cc1 (configuration not stated)
  -2.1%	-7.7%	-8.5%	-0.3%	-4.3	-5.5%	-24.2%	1.9%
42. COC(=O)c1ccc(CSc2nc3ccc(Cl)cc3[nH]2)o1
  -1.4%	-11.5%	8.0%	2.5%[57.1 µM]	-6.6	7.0%[57.1 µM]	-8.7%	2.6%

Not all compounds are listed, so the mix of outcomes need not match the whole.
